Source: PubChem
Mtb bLac sens = beta-lactam sensitization of Mtb H37Rv; M. tuberculosis H37Rv growth with meropenem, percent inhibition; hits of this screen are not shown here; inhibition, % at 25 µM; hit rate 0.27% among 330,000;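 active = about 74% or more and at least 40 points above the plate without the antibiotic, then above 30% in a dose series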;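 also: growth measured after seven days incubation then overnight dye step; 0% = bacteria only wells and 100% = bacteria with antibiotic; twin plates without the antibiotic show which effects depend on it; some results filed as inactive read as strong as hits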
Starred values were filed as active, the others as inactive. These rows are one share of the data; rates above refer to the full screens.

The first 4 compounds, ahead of the listing:
SMILES	Mtb bLac sens
Cc1c(NC(=O)C(C)OC(=O)c2cccnc2Cl)c(=O)n(-c2ccccc2)n1C (stereo not given)	-2.9
O=C(Nc1ccccc1Cl)C1CC(=O)N(Cc2ccco2)C1 (stereo not given)	-2.4
Cc1ccnc(SCC(=O)Nc2cccc(S(=O)(=O)N3CCOCC3)c2)n1	-3.1
COc1ccc(Cl)cc1NC(=O)CN(C)C(=O)C1COc2ccccc2O1 (stereo not given)	-2.4

This part in full (from the top)
SMILES	Mtb bLac sens
Cc1c(NC(=O)C(C)OC(=O)c2cccnc2Cl)c(=O)n(-c2ccccc2)n1C (stereo not given)	-2.9
O=C(Nc1ccccc1Cl)C1CC(=O)N(Cc2ccco2)C1 (stereo not given)	-2.4
Cc1ccnc(SCC(=O)Nc2cccc(S(=O)(=O)N3CCOCC3)c2)n1	-3.1
COc1ccc(Cl)cc1NC(=O)CN(C)C(=O)C1COc2ccccc2O1 (stereo not given)	-2.4
CC1CCCC(NC(=O)COC(=O)/C=C/c2ccc(F)cc2)C1C (stereo not given)	3.2
O=C(NCCCN1CCOCC1)c1cccc(NS(=O)(=O)c2ccc(Br)cc2)c1	-7.6
CC(C)(C)C(C(=O)n1cccc1C#N)c1ccccc1 (stereo not given)	8.7
CCN1CCN(CCOCCOc2ccccc2)CC1	-1.6
Cc1ccc(NC(=O)COC(=O)C2=NNC(=O)CC2)c(Br)c1	-3.4
CC(Sc1ncccn1)C(=O)Nc1ccc2c(c1)OCO2 (stereo not given)	-11.1

Next section; it opens with the 2 that closed the last part.
SMILES	Mtb bLac sens
Cc1ccc(NC(=O)COC(=O)C2=NNC(=O)CC2)c(Br)c1	-3.4
CC(Sc1ncccn1)C(=O)Nc1ccc2c(c1)OCO2 (stereo not given)	-11.1
Cc1ccc(NC(=O)CN2CCN(S(=O)(=O)c3ccc(F)cc3)CC2)cc1C	-9.3
O=C(CN1C(=O)NC(CCc2ccccc2)C1=O)Nc1cccc(Br)c1 (stereo not given)	-1.3
Cc1ccc(CC(=O)OC(C)C(=O)NC2CCCCC2C)cc1C (stereo not given)	-4.8
Cc1ccc(C(=O)Nc2ccc(N3CCN(C)CC3)cc2)cc1	-3.2
CCN(C(=O)/C=C/c1ccc(OC)cc1)C1CCCCC1	45.8
CCCCOC(=O)c1ccc(NC(=O)COC(=O)c2ccc3ncsc3c2)cc1	61.6
CCC1Nc2ncnc(N3CCCCC3)c2N(Cc2ccc(C)cc2)C1=O (stereo not given)	2.8
Cc1ccccc1C(=O)N1CCC(C(=O)NN2C(=O)NC3(CCCCC3)C2=O)CC1	0.6
C[C@]1(O)CCC2C3CC[C@H]4C[C@@H](OC(=O)CNC(=O)CN)CC[C@]4(C)C3CC[C@@]21C (stereo not given in full)	-4.0
COc1ccc2c(c1)OC[C@H]1[C@H]2N2C(=O)[C@H](C)NC(=O)[C@@]2(C)[C@H]1c1ccccc1	-4.4
O=C(Nc1cc(S(=O)(=O)N2CCOCC2)ccc1N1CCOCC1)c1cccs1	-11.2
COc1cccc(C(=O)NNC(=O)CCN2CCN(c3ccccc3)CC2)c1	6.8
CN(C)S(=O)(=O)c1cc(NC(=O)CSc2cccc[n+]2[O-])ccc1Cl	1.3
O=C(COC(=O)c1ccc(S(=O)(=O)N2CCOCC2)cc1)NCc1ccccc1	-3.2
CCOC(=O)C1=C(COC(=O)CCOc2ccc(OCC)cc2)NC(=O)NC1C (stereo not given)	-5.5
O=C(CSc1nnc(C2CC2)n1-c1ccccc1)NC1CCS(=O)(=O)C1 (stereo not given)	-4.4
O=C(CSc1nnc(Nc2ccccc2)s1)NCC1CCCO1 (stereo not given)	-5.5
COc1ccc(C(=O)Nc2ccccc2N2CCOCC2)cc1S(=O)(=O)N1CCCC1	3.7
CC[C@H](C)[C@@H](C(=O)NCCCCCCCCCCC(=O)N1CCN(C(=O)OC(C)(C)C)CC1)n1cc(CCCCCNC(=O)OC(C)(C)C)nn1	8.5
COc1ccc(C(=O)COC(=O)/C=C/c2ccccc2)c(OC)c1	15.4
Cc1nc(C)c(-c2csc(Nc3ccc(O)cc3C)n2)s1	-10.4
CN(C(=O)c1cccc(S(=O)(=O)N2CCCC2)c1)C1CCCCC1	12.0
O=C(N/N=C\C=C\c1ccc(Br)cc1)c1ccc2c(c1)OCO2	-2.3
COc1ccc(C)cc1NC(=O)c1ccc(OCc2c(C)noc2C)cc1	0.5
CCOC(=O)[C@H]1[C@H]2COc3ccccc3[C@@H]2N2C(=O)CNC(=O)[C@@]12C	3.4
O=S(=O)(Nc1ccccc1OC(F)F)c1ccc(S(=O)(=O)N2CCCC2)cc1	0.2
COc1ccccc1NS(=O)(=O)c1cccc(NS(=O)(=O)c2ccc(Cl)c(C(=O)O)c2)c1	-1.9
C1=C[C@@H]2CCN(Cc3ccccc3)Cc3cccc(c32)C1	-0.8
COc1ccc(S(=O)(=O)N2CCN(CCOc3ccccc3Cl)CC2)cc1OC	0.5
O=C1CN(C(=O)COC(=O)c2ccc([N+](=O)[O-])o2)c2ccccc2N1	2.2

Reprinted from the results shown, 4 compounds:
SMILES	Mtb bLac sens
COc1ccccc1NS(=O)(=O)c1cccc(NS(=O)(=O)c2ccc(Cl)c(C(=O)O)c2)c1	-1.9
C1=C[C@@H]2CCN(Cc3ccccc3)Cc3cccc(c32)C1	-0.8
COc1ccc(S(=O)(=O)N2CCN(CCOc3ccccc3Cl)CC2)cc1OC	0.5
O=C1CN(C(=O)COC(=O)c2ccc([N+](=O)[O-])o2)c2ccccc2N1	2.2

(further entries)
SMILES	Mtb bLac sens
CCCC1(C(=O)OC)NC(c2ccc(OC)c(OC)c2)C2C(=O)N(c3cccc(C(C)=O)c3)C(=O)C21 (stereo not given)	-16.3
COC(=O)c1ccccc1S(=O)(=O)N1CCC(C(=O)NC2CCCCC2)CC1	-5.9
CCN(C[C@H]1N[C@@](C)(C(=O)OC)[C@H]2C(=O)N(C)C(=O)[C@@H]12)S(=O)(=O)c1ccc(C)cc1	4.7
CC(=O)[C@H]1CCC2C3CC=C4C[C@@H](O)CC[C@]4(C)C3CC[C@@]21C (stereo not given in full)	3.8
Cc1nnc(SCC(=O)Nc2cccc(S(=O)(=O)N3CCCCC3)c2)s1	-4.6
Cc1cc(Br)cc(Br)c1OCC(=O)NNC(=O)c1ccoc1C	5.0
C[C@H](CO)N1C[C@H](C)[C@@H](CN(C)C(=O)Nc2ccccc2)Oc2c(cccc2N(C)C)C1=O	2.5
COCC(C)N1CCC(n2nccc2NC(=O)c2ccc3c(c2)OCO3)CC1 (stereo not given)	-5.4
CC1CCCN(S(=O)(=O)c2ccc(NC(=O)[C@@H]3CCCN3C(=O)c3cccs3)cc2)C1 (stereo not given in full)	4.5
CCN(C(=O)COC(=O)c1ccccc1O)c1nc2ccccc2s1	-9.6
CN(C(=O)CNc1ccccc1Cl)C1CCS(=O)(=O)C1 (stereo not given)	-7.8
Cc1cc(=O)oc2cc(OCC(=O)NC3CCCC3)ccc12	1.2
Cc1ccc(S(=O)(=O)N2CCCCC2)cc1NC(=O)c1cc2ccccc2o1	7.0
O=C(COc1cccnc1[N+](=O)[O-])Nc1cc(Cl)ccc1Cl	1.8
CCC(C)C(Nc1ncnc2scc(-c3ccccc3)c12)C(=O)O (stereo not given)	1.4
COc1ccccc1N1CCN(C(=O)c2ccc(-c3ccc(Cl)cc3)o2)CC1	99.5
CCOC(=O)C1CCCN(S(=O)(=O)c2ccc3c4c(cccc24)C(=O)N3CC)C1 (stereo not given)	3.6
CC(=O)N/C(=C/c1ccccc1)c1ccccc1	-4.3
O=C(NCCC(=O)N1CCN(c2cccc(Cl)c2)CC1)c1ccc(Br)cc1	18.6
CCc1ccc(OCC(=O)NCCc2ccc3c(c2)OCCO3)cc1	-0.3
CC(=O)Oc1ccc(C#C/C=C2\c3ccccc3C(=O)N2c2ccccc2)cc1	5.8
CC(C)(CNC(=O)c1cc([N+](=O)[O-])ccc1N1CCC(Cc2ccccc2)CC1)N1CCOCC1	25.8
c1cc(CCCc2ccncc2)ccn1	-3.2
COc1ccccc1NC(=O)c1ccc(NC(=O)C2CC2C)cc1 (stereo not given)	28.7
Cn1cccc1C(=O)OCC(=O)NNC(=O)c1ccc([N+](=O)[O-])cc1	15.9
CC(=O)OCC1OC(OC2C[C@]3(C)C(CC(O)C4C([C@](C)(CCC=C(C)C)OC5OC(CO)C(O)C(O)C5O)CC[C@]43C)[C@@]3(C)CCC(O)C(C)(C)C23)C(O[C@@H]2OC(C)C(O)C(O)C2O)C(O)C1O (stereo not given in full)	-4.5
Cc1ccc(C(=O)NCC(c2cccs2)N(C)C)cc1S(=O)(=O)N1CCOCC1 (stereo not given)	-4.7
O=C(NC1CC1)c1cc(=S)[nH]c2ccccc12	-8.6
O=C(NCCN1CCOCC1)c1ccccc1OCc1ccccc1	-4.4
Cc1ccc(NC(=O)CN(C)C(=O)c2ccc(NS(=O)(=O)c3ccc4[nH]c(=O)[nH]c4c3)cc2)cc1	-3.3
O=C(COC(=O)c1cc(Cl)ccc1O)NC(=O)NCc1ccccc1	2.4
COc1ccc(C(=O)C(C)OC(=O)CNC(=O)c2ccco2)cc1 (stereo not given)	-4.1
COc1cc2c(cc1OC)CN(C(=O)CSc1ccc(F)cc1)CC2	-4.0
CC(C)C(NC(=O)c1ccccc1F)C(=O)NCCCn1ccnc1 (stereo not given)	-1.7
C[C@H]1CN=C(Nc2ccccc2)N1CCc1ccc(F)cc1	-2.2
COc1ccc(C(C)=O)cc1COC(=O)C1CCN(C(=O)c2ccc(Cl)cc2)CC1	-4.9
O=C(COC(=O)c1ccc(F)c(S(=O)(=O)N2CCOCC2)c1)NCCc1ccc(F)cc1	2.5
Cc1cccnc1CCNC(=O)c1ccc(OC2CCN(Cc3ccccn3)CC2)cc1	-6.1
CN(CC(=O)NCCc1ccc(S(N)(=O)=O)cc1)CC(=O)Nc1ccccc1C(F)(F)F	-1.6
CC(=O)c1cn(CC(=O)Nc2ccccc2Cl)c2ccccc12	0.2

Single values from above:
Mtb bLac sens with `COc1ccc(C(C)=O)cc1COC(=O)C1CCN(C(=O)c2ccc(Cl)cc2)CC1` → -4.9
Mtb bLac sens with `CC(=O)c1cn(CC(=O)Nc2ccccc2Cl)c2ccccc12` → 0.2

Going on with the list.
SMILES	Mtb bLac sens
COc1cc(C)c(NC(=O)COc2ccc3c(c2)CCC3)cc1OC	0.6
CCOc1ccc(NC(=O)CN(C)C(=O)c2cc(-c3cccs3)nn2-c2ccccc2)cc1OCC	3.1
Cc1ccc(C(=O)COC(=O)c2nc(Cl)ccc2Cl)cc1	6.1
CC(Oc1ccccc1F)c1nnc(SCC(=O)NCc2ccc3c(c2)OCO3)o1 (stereo not given)	-14.7
COc1ccc(C(CNC(=O)c2cccc(S(=O)(=O)N3CCCC(C)C3)c2)N(C)C)cc1 (stereo not given)	-2.4
CCCCn1c(N)c(N(CCOC)C(=O)c2ccc(N3CCCC3=O)cc2)c(=O)[nH]c1=O	-7.8
Cc1cccc(C(=O)OCC(=O)NCC2CCCO2)c1O (stereo not given)	0.4
COc1ccccc1C(=O)NCc1nnc(SC(C)C(=O)Nc2nccs2)n1C (stereo not given)	-2.9
O=C(NCCCN1CCCC1=O)c1cccc(S(=O)(=O)Nc2ccc(F)cc2)c1	-9.8
COc1cc2cc(C[C@H](C)O)oc(=O)c2cc1OC	3.2
CC(C)CC1(C)NC(=O)N(CC(=O)Nc2ccc3c(c2)OCCO3)C1=O (stereo not given)	3.3
CC(C)NC(=O)N(C)C[C@H]1Oc2ccc(NC(=O)Nc3ccc4c(c3)OCO4)cc2C(=O)N([C@H](C)CO)C[C@@H]1C	-3.3
COc1ccc(CCNS(=O)(=O)c2ccc3c(c2)CCCC3)cc1OC	-10.4
O=S(=O)(NCCOc1ccccc1F)c1ccc(Cl)cc1F	1.0
Cc1cc(NC(=O)CSc2nc(C)c(C)n2CC(C)C)no1	-3.6
O=C(CCNS(=O)(=O)c1ccc(OC(F)(F)F)cc1)NCCc1c[nH]c2ccccc12	-2.6
CC[C@]1(c2ccccc2C)ON(c2ccccc2C(F)(F)F)C1=O	-1.2
O=C(C[C@@H]1C/C=C\CC[C@@H](Cc2ccc(F)cc2)C(=O)OC[C@@H]2CCCN2C1=O)NCCO	6.7
COc1ccccc1N(Cc1ccccc1)S(=O)(=O)c1cccc(C(=O)N2CCCCC2)c1	-3.6
Cc1nn(-c2ccccc2)c(C)c1C(=O)NCc1ccccc1F	-5.9
COc1ccc(S(=O)(=O)N(C)C[C@H]2Oc3ccc(NC(=O)Nc4ccc5c(c4)OCO5)cc3CC(=O)N([C@@H](C)CO)C[C@@H]2C)cc1	98.4
COc1ccc(NC(=O)CSc2nnc(C3CC3)n2C)cc1S(=O)(=O)N1CCCCC1	-4.3
COc1ccc(OC)c(NC(=O)C(CCSC)NS(=O)(=O)c2cccs2)c1 (stereo not given)	-0.3
O=C(NCCCn1ccnc1)c1nc(Cn2ccc([N+](=O)[O-])n2)no1	-10.7
COc1ccc2nc3n(c(=O)c2c1)-c1ccccc1C(=O)NC3Cc1ccccc1 (stereo not given)	4.7
O=C(CCc1nc2ccccc2c(=O)[nH]1)Nc1cc(Cl)ccc1N1CCCC1	-4.6
CCN(CC(=O)NCc1cccs1)S(=O)(=O)c1cc(NC(C)=O)ccc1OC	-2.1
Cc1sc2nc(SCC(=O)Nc3cccc(S(N)(=O)=O)c3)[nH]c(=O)c2c1C	-0.8
Cc1ccc(S(=O)(=O)N2[C@@H](c3ccc(Cl)cc3)C(C(=O)O)=C[C@H]2C(C)(C)C)cc1	1.7
Cc1cc(C)c(NC(=O)COC(=O)C2CCCO2)c(C)c1 (stereo not given)	-4.8
CC(C)(C)NCC(O)COc1cccc2c1CCC(=O)N2 (stereo not given)	-6.1
Cc1ccc(C(C(=O)NC2CCCCC2)N(Cc2cccnc2)C(=O)c2csnn2)cc1 (stereo not given)	-2.2
